VDR inhibitor: Inhibitors of the vitamin D receptor (VDR): qHTS; VDR-SRC2-3 peptide fluorescence polarization, 2 h; Vitamin D3 receptor (Homo sapiens), P11473; AID 504847, 2011; Potency, µM, for the others: max response, negative = inhibition, usual class: inhibitors; 400,000 compounds, 0.93% hits; active = well fitted inhibition curve with a large enough effect; inconclusive = small, poorly fitted or top-dose-only effect, or another doubt; inactive = no such curve, though single readings can be large or run the other way; note: series mostly up to about 120 µM
Target sequence (P11473 whole entry, looked up): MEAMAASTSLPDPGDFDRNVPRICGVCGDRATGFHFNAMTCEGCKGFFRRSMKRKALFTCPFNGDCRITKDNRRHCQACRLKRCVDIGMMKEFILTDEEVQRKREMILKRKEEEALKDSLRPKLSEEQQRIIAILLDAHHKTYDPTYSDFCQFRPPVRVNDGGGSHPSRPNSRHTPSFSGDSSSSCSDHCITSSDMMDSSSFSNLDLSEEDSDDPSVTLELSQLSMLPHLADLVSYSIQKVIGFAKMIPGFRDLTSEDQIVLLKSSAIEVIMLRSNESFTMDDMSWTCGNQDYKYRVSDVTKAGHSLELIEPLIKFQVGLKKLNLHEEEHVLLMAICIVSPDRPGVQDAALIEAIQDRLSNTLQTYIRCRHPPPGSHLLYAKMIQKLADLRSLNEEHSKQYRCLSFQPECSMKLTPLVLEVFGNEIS
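Measured by FP: displacement of SRC2-3 coactivator peptide from VDR by library compounds, following a two-hour ambient incubation.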
Active calls of the source: *; & = joins results of further samples; [ ] = remark or other dose. % is set by controls: 0 for no effect and ±100 for the full control effect; potency is the fitted concentration of half-maximal effect. Not all compounds are listed, so the mix of outcomes need not match the whole.

The opening 5 compounds, ahead of the listing:
`Nc1cccc(Nc2nc(OC(C(F)(F)F)C(F)(F)F)nc(OC(C(F)(F)F)C(F)(F)F)n2)c1` gave VDR inhibitor -8%.
Screening CCOc1ccc(NC(=O)CC2C(=O)N(c3ccccc3)C(=O)N2CCc2ccc(OC)cc2)cc1 (centres undefined) returned VDR inhibitor -12%.
For Cc1ccc(CSCC(=O)NCCc2ccccc2)cc1 the results were VDR inhibitor -12%.
Screening O=C(C1CCN(S(=O)(=O)N2CCC3(CC2)OCCO3)CC1)N1CCN(Cc2ccccc2)CC1 returned VDR inhibitor -8%.
`CCCCOC(=O)c1cc(C)nc2ccc(Br)cc12` gave VDR inhibitor 13%.

All compounds of this part (from the top)
`Nc1cccc(Nc2nc(OC(C(F)(F)F)C(F)(F)F)nc(OC(C(F)(F)F)C(F)(F)F)n2)c1` gave VDR inhibitor -8%.
Screening CCOc1ccc(NC(=O)CC2C(=O)N(c3ccccc3)C(=O)N2CCc2ccc(OC)cc2)cc1 (centres undefined) returned VDR inhibitor -12%.
For Cc1ccc(CSCC(=O)NCCc2ccccc2)cc1 the results were VDR inhibitor -12%.
Screening O=C(C1CCN(S(=O)(=O)N2CCC3(CC2)OCCO3)CC1)N1CCN(Cc2ccccc2)CC1 returned VDR inhibitor -8%.
`CCCCOC(=O)c1cc(C)nc2ccc(Br)cc12` gave VDR inhibitor 13%.
Screening Cc1cc(C)cc(NC(=O)OCCN2CCN(Cc3ccccc3)CCC2=O)c1 returned VDR inhibitor -7%&16%.
For COc1ccc(/C=C(\C#N)C(=O)OCC(=O)NCc2ccccc2OC)cc1 the results were VDR inhibitor -14%.
For CCC(=O)N1CCc2cc(CNS(=O)(=O)c3cccs3)ccc21 the results were VDR inhibitor 0%.
Screening CC1=C(C(=O)N2CCCCC2)C(c2cccs2)C2=C(CCCC2=O)N1 (centres undefined) returned VDR inhibitor -2%.
For Cc1ccsc1C(=O)OCc1cc(=O)n2ccsc2n1 the results were VDR inhibitor -7%.
For N#Cc1ccccc1Cn1c(SCC(=O)Nc2ccc(F)cc2)nc2ccccc21 the results were VDR inhibitor 4%.
Screening COC(CNC(=O)c1ccc2c(c1)nc(C)n2-c1cc(C)cc(C)c1)OC returned VDR inhibitor -10%.
CCOc1ccc2nc(N(Cc3cccnc3)C(=O)C3CCCCC3)sc2c1 was read as VDR inhibitor 9%.
Screening COc1ccc(NC(=O)c2ccc(N3C(=O)C4CC=C(C)CC4C3=O)cc2)c(OC)c1 (centres undefined) returned VDR inhibitor -21%.
For C=CCn1nc(-c2ccccc2)c(N2CCCCC2)cc1=O the results were VDR inhibitor -1%.
For O=C(Cn1c(=O)c2cccn2c2ccccc21)Nc1cc(F)ccc1F the results were VDR inhibitor 38%&2%[activator].
`O=C(NCCN1C(=O)S/C(=C/c2cccnc2)C1=O)C1CC(=O)N(Cc2ccccc2)C1` (centres undefined) gave VDR inhibitor -8%.
Screening COc1ccc(C(=O)COC(=O)/C=C/c2ccco2)cc1F returned VDR inhibitor -14%.
`COc1cc(CN2CCN(c3cc(C)ccc3C)CC2)cc([N+](=O)[O-])c1O` gave VDR inhibitor -14%.
Screening CCOc1ccc2oc(C(=O)OCC(=O)N3CCCC(C)C3)c(C)c2c1 (centres undefined) returned VDR inhibitor -2%.
For COC(=O)c1nc(NNC(=O)c2ccccc2)sc1-c1ccccc1 the results were VDR inhibitor 5%.
For CCn1c(SCC(=O)NCCc2ccccc2)nc2c([nH]c3ccccc32)c1=O the results were VDR inhibitor -14%.
For CC(=O)Oc1ccc2c(c1)CCC1C2CC[C@@]2(C)C1CC(OC(C)=O)C2OC(C)=O (some centres undefined) the results were VDR inhibitor 15%.
O=C(Nc1ccccc1C(=O)Nc1ccc2c(c1)OCO2)c1cccs1 was read as VDR inhibitor -6%.
`CCCc1nn2c(N)c(/C=C3\C=Nc4ccccc43)c(=O)nc2s1` gave VDR inhibitor 16%&-10%.
COc1ccccc1CNc1ccnc(-c2cccc(NS(C)(=O)=O)c2)n1 was read as VDR inhibitor inconclusive.
`Cn1c(-c2cc(Cl)ccc2O)nc2c1c(=O)[nH]c(=O)n2Cc1ccccc1` gave VDR inhibitor -3%.
CCOC(=O)C1CCCN(C(=O)c2ccc3c(c2)sc2nc(-c4ccc(CC)cc4)cn23)C1 (centres undefined) was read as VDR inhibitor 2%.
For N#CCC(=O)N/N=C/c1cc(Br)ccc1OCc1cccc2ccccc12 the results were VDR inhibitor 5%.
O=C(Nc1cccnc1)c1ccco1 was read as VDR inhibitor -3%.
CCCOc1ccc(-c2nc(OC)c3ccccc3n2)cc1 was read as VDR inhibitor -19%.

3 compounds drawn at random from the list so far, as already listed:
For CCn1c(SCC(=O)NCCc2ccccc2)nc2c([nH]c3ccccc32)c1=O the results were VDR inhibitor -14%.
For COC(=O)c1nc(NNC(=O)c2ccccc2)sc1-c1ccccc1 the results were VDR inhibitor 5%.
For CC(=O)Oc1ccc2c(c1)CCC1C2CC[C@@]2(C)C1CC(OC(C)=O)C2OC(C)=O (some centres undefined) the results were VDR inhibitor 15%.

Sorted by SMILES length (falling): some entries from above.
Screening COc1ccc(NC(=O)c2ccc(N3C(=O)C4CC=C(C)CC4C3=O)cc2)c(OC)c1 (centres undefined) returned VDR inhibitor -21%.
For N#Cc1ccccc1Cn1c(SCC(=O)Nc2ccc(F)cc2)nc2ccccc21 the results were VDR inhibitor 4%.
Screening COc1ccc(C(=O)COC(=O)/C=C/c2ccco2)cc1F returned VDR inhibitor -14%.
For C=CCn1nc(-c2ccccc2)c(N2CCCCC2)cc1=O the results were VDR inhibitor -1%.
For Cc1ccc(CSCC(=O)NCCc2ccccc2)cc1 the results were VDR inhibitor -12%.
